Six1-Eya2 blk: blocks human Six1 binding to Eya2; AlphaScreen GST-Six1/His-Eya2 binding, biochemical; stronger effect = lower value; control for the full effect not named in the record; Q15475+O00167; 0.56% of 360,000 active; activity change, % (test concentration not listed); AID 651725; in the data active = activity change below about -65%; inconclusive = about -30% to -65%; inactive = above about -30%; note: % is set by controls: 0 for no effect and ±100 for the full control effect; compound concentration not given in the record
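AlphaScreen luminescence read after one hour at 37 °C in darkness. Pin-transferred compounds met GST-Six1 and His-Eya2 protein (5X stock 250 nM/500 nM) plus glutathione donor and Ni-chelate acceptor beads (5X, 50 ug/mL).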
CtBP-E1A blk: blocks the CtBP interaction with E1A; AlphaScreen GST-E1A/His-CtBP binding, 1536-well; stronger effect = lower value; control for the full effect not named in the record; activity change, % (concentration not given with the values); 0.49% of 340,000 active; AID 651724; in the data active means activity change below about -65%; inconclusive means about -30% to -65%; inactive means above about -30%; note: % is set by controls: 0 for no effect and ±100 for the full control effect
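Protein mix (5X: 125 nM each GST-E1A, His-CtBP) was incubated with pinned compound 2 h at 37 deg C in dark, in 50 mM Tris pH 8.0 buffer with 300 mM NaCl. Glutathione donor and nickel acceptor beads followed; AlphaScreen signal read after 1 h.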
D2 potentiator: positive allosteric modulators of human D2 dopamine receptor; potentiation, % (no concentration beside the values); DiscoveRx D2 beta-arrestin cells, luminescence, 90 min; 100% = 57 uM dopamine signal; P14416; AID 624464; 0.23% of 360,000 active; active = potentiation of 50% or more; inconclusive = 30% to 50%; inactive = 30% or less;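 note: compound concentration not given in the record; tested on top of an EC20 dose of dopamine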
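D2 cells co-treated with compound plus 50 nM dopamine (EC20) for 90 min at 37 deg C to detect potentiation. Beta-arrestin recruitment was read as enzyme-fragment luminescence after 1 h at ambient temperature. Full response was set by 57 uM dopamine.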
TRPV1 potentiator: human TRPV1 potentiation; Q8NER1; TRPV1-expressing cells, Fluo-8 calcium influx, capsaicin EC20 potentiation; host cell line not named in the record; control for the full effect not named in the record; potentiation, % at 8.33 µM; 0.02% of 320,000 active; AID 540277; active means potentiation above 80%; inconclusive means 30% to 80%; inactive means below 30%; note: 0% is about no effect
Target sequence (Q8NER1 whole entry, looked up): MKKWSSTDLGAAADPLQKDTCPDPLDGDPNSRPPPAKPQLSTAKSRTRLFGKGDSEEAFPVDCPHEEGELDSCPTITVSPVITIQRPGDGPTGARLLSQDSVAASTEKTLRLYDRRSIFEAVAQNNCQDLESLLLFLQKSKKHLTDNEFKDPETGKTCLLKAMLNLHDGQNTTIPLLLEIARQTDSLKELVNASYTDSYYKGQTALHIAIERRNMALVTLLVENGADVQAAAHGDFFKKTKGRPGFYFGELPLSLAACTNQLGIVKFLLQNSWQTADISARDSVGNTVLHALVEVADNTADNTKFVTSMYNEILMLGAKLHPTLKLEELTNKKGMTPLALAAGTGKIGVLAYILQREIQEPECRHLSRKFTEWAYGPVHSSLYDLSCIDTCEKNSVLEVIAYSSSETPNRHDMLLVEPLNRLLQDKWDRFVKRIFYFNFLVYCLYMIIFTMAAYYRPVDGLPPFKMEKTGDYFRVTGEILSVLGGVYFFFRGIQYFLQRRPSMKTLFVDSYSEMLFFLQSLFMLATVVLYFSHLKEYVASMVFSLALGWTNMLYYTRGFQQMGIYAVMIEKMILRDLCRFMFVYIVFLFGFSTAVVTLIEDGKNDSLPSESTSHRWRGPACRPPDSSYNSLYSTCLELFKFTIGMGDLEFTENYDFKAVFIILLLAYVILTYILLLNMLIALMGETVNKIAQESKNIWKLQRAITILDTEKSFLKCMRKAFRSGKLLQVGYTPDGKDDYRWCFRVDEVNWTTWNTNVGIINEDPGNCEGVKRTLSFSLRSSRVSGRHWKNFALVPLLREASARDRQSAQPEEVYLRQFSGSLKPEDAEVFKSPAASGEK
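Cells expressing TRPV1 were dye-loaded with Fluo-8 and read kinetically: 10 s baseline, 3 min after compound (agonist portion), then 2 min after EC20 capsaicin (allosteric enhancer portion). Calcium-bound dye fluorescence at 480/520 nm.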
TRPML1 inh: inhibitors of human TRPML1 channel; Q9GZU1; 0.02% of 390,000 active; TRPML1-inducible cells, Ca2+ dye fluorescence, FDSS; stronger effect = lower value; inhibition of EC80 agonist-evoked calcium signal; AID 624415; activity change, negative = inhibition, % (no concentration beside the values); in the data active means activity change below about -50%; inconclusive means about -30% to -50%; inactive means above about -30%;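 note: stimulus is agonist 54-4 at its EC80 concentration; % is set by controls: 0 for no effect and ±100 for the full control effect; compound concentration not given in the record; the text of the record puts the active cut at -80%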
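Calcium fluorescence in TRPML1-DL cells induced overnight with Tet: a 110 s read after compound pin addition, then a 110 s antagonist read after challenge with 54-4 at 4 uM final (EC80).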
TRPML1 ag: human mucolipin-1 channel agonism | 0.12% of 410,000 active | AID 624414 | activation, % (concentration not given with the values) | Q9GZU1 | TRPML1-expressing cells, Ca2+ dye fluorescence, FDSS; host cell line not named in the record; reference of the full effect not given here; in the data active = activation above about 50%; inconclusive = about 30% to 50%; inactive = below about 30%; note: 0% is about no effect; the text of the record puts the active cut at 80%
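Calcium fluorescence on an FDSS kinetic reader gave the read-out. Tet-induced TRPML1-DL cells were plated overnight, dye-loaded (Ca8 with quencher, 45-90 min, room temperature, dark), then read 110 s after compound addition, and again 110 s after 4uM final 54-4 (EC80).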
The depositor's hits bear a star; ? = inconclusive; . = no result given. Hits appear at their usual frequency, and some 0.95% of all compounds hit somewhere here.

Screens in order – Six1-Eya2 blk	CtBP-E1A blk	D2 potentiator	TRPV1 potentiator	TRPML1 inh	TRPML1 ag
CC1(C)CC(=O)CC(C2(O)C(=O)N(Cc3ccccc3)c3ccccc32)O1 (stereo not drawn)
→ 0	5	-14	17	-1	-0.7
O=C(C[n+]1cn(C(F)F)c2ccccc21)c1ccc(Br)cc1
→ -5	1	-10	-8	3	-0.6
CN1C(=O)C(C)(C)c2cc(S(=O)(=O)N3CCCC(C(=O)Nc4ccc(Cl)cc4)C3)ccc21 (stereo not drawn)
→ 1	-3	1	10	-13	-0.2
COCCN1Cc2cccc(C(=O)Nc3cccc(C)c3C)c2C1=O
→ -3	-4	-7	10	42	0.7
O=C(CSc1ccccc1)Nc1ccc2c(c1)C(=O)NC2=O
→ -6	.	-12	1	-12	0.5
Cc1ccc(C(=O)NC(=S)Nc2ccc(-c3cc4ccccc4oc3=O)cc2)c(C)c1
→ 7	2	-3	-2	36	-0.2
O=c1oc2ccccc2cc1-c1ccc(O)cc1
→ -1	7	-18	-1	-8	-0.4
Cc1ccccc1OCC(=O)N/N=C1\CCOc2c(C)cccc21
→ 1	5	0	-1	3	0.5
CC(C)(C)OC(=O)C[C@H]1C/C=C\C[C@@H](CC(=O)N(CCO)Cc2ccccc2)C(=O)N2CCC[C@@H]2COC1=O
→ 5	0	-12	.	21	-0.2
CCCOc1ccc(N2CC(C(=O)NC3=NCCS3)CC2=O)cc1 (stereo not drawn)
→ 0	2	2	-13	9	-0.8
CC(/C=C1\SC(=S)N(c2ccc(C(=O)O)cc2)C1=O)=C\c1ccccc1
→ 22	.	-3	?	16	0.5
N#Cc1c(Cl)nsc1NCCN1CCOCC1
→ -3	-5	-4	8	27	0.6
CCCNC(=O)COC(=O)c1cc2c(=O)n3ccccc3nc2s1
→ -8	-1	-13	-5	10	-0.1
CCN(CC)C(=O)COc1ccc(/C(C)=N/NC(=O)c2ccccc2-n2cccc2)cc1
→ -2	-6	1	-2	7	0.5
COc1cccc(Nc2nc(-c3cccc(N4C(=O)c5ccccc5C4=O)c3)cs2)c1
→ 3	-4	-10	?	-16	0.1
COCCn1c(C)cc(C(=O)COC(=O)/C=C/c2ccc(OC)cc2OC)c1C
→ -15	-12	-2	.	24	-1.0
CCCn1cnc2c(=O)oc3ccccc3c21
→ -15	-11	-9	0	-11	-1.0
COc1ccc(C23CC4CC(CC(C4)C2)C3)cc1C(=O)NCCN(C)C
→ 13	.	-62	-8	15	0.6
CC1=NNC(=O)C1CC(=O)N/N=C(\C)c1ccco1 (stereo not drawn)
→ 1	7	1	-5	2	1.0
Cc1cc2ncn(C(=O)N3CCCCCC3)c2cc1C
→ -2	6	-5	0	31	-1.0
Cc1cc(=O)n2nc(N3CCC(C(=O)N4CCN(Cc5ccccc5)CC4)CC3)sc2n1
→ -8	-2	0	26	-14	-0.4
CC1=[N+](C)c2ccc3ccccc3c2C1(C)C
→ -26	-17	1	24	-9	0.3
COc1ccc(CC(=O)Nc2ccc(S(=O)(=O)N3CCCCC3)cc2)cc1OC
→ -10	?	5	-12	-3	-0.7
Cc1ccc(S(=O)(=O)N2CCN(C(C)C(=O)Nc3ccccc3-c3ccccc3)CC2)cc1 (stereo not drawn)
→ -1	-3	-10	7	-11	0.3
Cc1cccc(OCCC(=O)NCC(=O)Nc2c(C)cccc2C)c1
→ 6	3	-28	11	-2	0.5
COC(c1ccccc1)c1nnc(CCC(=O)NCCCc2ccccc2)o1 (stereo not drawn)
→ 1	0	-10	-1	3	-0.6
Cc1ccc(C(=O)N2CCCC2)cc1Br
→ 28	2	-13	-2	7	-0.1
Cc1cc(O)ccc1N/C=C1\CCCC1=O
→ -17	-8	64*	-11	-2	1.1
O=C(NCCN1CCOCC1)/C(=C/c1ccc(Cl)cc1)NC(=O)c1ccccc1
→ 1	5	-5	-2	-5	-1.0
CC(C)NC(=O)NC(=O)CSc1ccc(S(=O)(=O)N2CCCC2)cn1
→ 0	0	2	?	3	1.9

Reformatted with bars between the fields: entries from further up.
mol | Six1-Eya2 blk | CtBP-E1A blk | D2 potentiator | TRPV1 potentiator | TRPML1 inh | TRPML1 ag
Cc1cc(=O)n2nc(N3CCC(C(=O)N4CCN(Cc5ccccc5)CC4)CC3)sc2n1 | -8 | -2 | 0 | 26 | -14 | -0.4
CC1=[N+](C)c2ccc3ccccc3c2C1(C)C | -26 | -17 | 1 | 24 | -9 | 0.3
COc1ccc(CC(=O)Nc2ccc(S(=O)(=O)N3CCCCC3)cc2)cc1OC | -10 | ? | 5 | -12 | -3 | -0.7
Cc1ccc(S(=O)(=O)N2CCN(C(C)C(=O)Nc3ccccc3-c3ccccc3)CC2)cc1 (stereo not drawn) | -1 | -3 | -10 | 7 | -11 | 0.3
Cc1cccc(OCCC(=O)NCC(=O)Nc2c(C)cccc2C)c1 | 6 | 3 | -28 | 11 | -2 | 0.5
COC(c1ccccc1)c1nnc(CCC(=O)NCCCc2ccccc2)o1 (stereo not drawn) | 1 | 0 | -10 | -1 | 3 | -0.6
Cc1ccc(C(=O)N2CCCC2)cc1Br | 28 | 2 | -13 | -2 | 7 | -0.1
Cc1cc(O)ccc1N/C=C1\CCCC1=O | -17 | -8 | 64* | -11 | -2 | 1.1
O=C(NCCN1CCOCC1)/C(=C/c1ccc(Cl)cc1)NC(=O)c1ccccc1 | 1 | 5 | -5 | -2 | -5 | -1.0
CC(C)NC(=O)NC(=O)CSc1ccc(S(=O)(=O)N2CCCC2)cn1 | 0 | 0 | 2 | ? | 3 | 1.9

Continued:
Screens in order – Six1-Eya2 blk	CtBP-E1A blk	D2 potentiator	TRPV1 potentiator	TRPML1 inh	TRPML1 ag
COc1ccc(S(=O)(=O)NC(=O)C2(C)CCN2C(=O)CC2CCCC2)cc1 (stereo not drawn)
→ 0	1	-7	.	.	-0.6
CC1CCN(C(=O)C2CCCN2S(=O)(=O)c2ccc(Cl)cc2)CC1 (stereo not drawn)
→ 4	4	-20	25	-1	-0.3
Nc1oc2ccccc2c(=O)c1-c1ccc2c(c1)OCO2
→ -2	9	-6	9	-2	-0.6
O=C(N/N=C/c1cc(Cl)cc([N+](=O)[O-])c1O)C(O)(c1ccccc1)c1ccccc1
→ -1	.	-30	10	-15	0.9
CC1CCCC(NC(=O)COC(=O)c2cccs2)C1C (stereo not drawn)
→ 0	.	-2	-13	0	-0.1
CCCCC(=O)NC(c1ccccc1)c1ccc2cccnc2c1O (stereo not drawn)
→ -66*	?	-6	-2	-11	1.3
CSCC(NS(=O)(=O)c1ccc(C)cc1)C(=O)O (stereo not drawn)
→ 5	11	-7	-12	-16	-0.6
Cc1c(N=Cc2cccs2)c(=O)n(-c2ccccc2)n1C
→ 0	11	-8	-15	-10	1.2
O=C(C1CCC(CNS(=O)(=O)c2cccs2)CC1)N1CCN(c2ccc(F)cc2)CC1 (stereo not drawn)
→ -15	-3	9	-5	33	2.5
Cc1nnc(Sc2nc3ccccc3o2)c2ccccc12
→ 8	3	-19	5	-12	-0.6
O=S(=O)(NCC(c1ccco1)N1CCN(c2ccccc2)CC1)c1ccc(F)cc1 (stereo not drawn)
→ -8	5	-16	2	7	3.0
O=C(Nc1ccc(Cl)cc1)C1c2cccc[n+]2CC(=O)N1Cc1ccc2c(c1)OCO2 (stereo not drawn)
→ -7	.	-14	4	-15	0.4
CCOc1ccc(-c2ccc(SCC(=O)N3CCOCC3)nn2)cc1
→ -7	0	-12	2	-4	0.2
NC(Cc1ccc(F)cc1)c1csc(NC(=O)NC(c2ccccc2)c2ccccc2)n1 (stereo not drawn)
→ -4	-9	7	.	.	4.3
COc1ccc(CN(C)C(=O)COC(=O)c2cnc(Cl)c(Cl)c2)cc1
→ -27	-29	-9	.	-14	-0.1
O=C1Cc2ccccc2Sc2cc(OCCCN3CCCCC3)ccc21
→ -20	-4	-34	-2	14	3.1
CC(C)(C)N=C1NN=C(c2ccc(S(=O)(=O)N3CCCCC3)cc2)CS1
→ -17	-7	-30	?	-8	-1.0
C[n+]1c2n(c3ccccc31)N=C(c1cc(C(C)(C)C)c(O)c(C(C)(C)C)c1)CS2
→ -10	-5	-18	2	37	3.2
CCn1c(=O)c([N+](=O)[O-])c(NCCc2ccc(OC)c(OC)c2)c2ccccc21
→ ?	-26	-21	8	-8	-0.1
Cc1ccc(C(=O)OC(C)C(=O)NCc2ccc3c(c2)OCO3)cc1S(=O)(=O)N1CCOCC1 (stereo not drawn)
→ -1	-2	27	0	23	0.8
O=C(c1ccsc1)N1CCCC(N2CCN(c3ccccc3F)CC2)C1 (stereo not drawn)
→ -1	4	-31	-12	36	-0.2
COc1ccc(S(=O)(=O)NC(C)C(=O)Nc2cccc(C(C)=O)c2)cc1 (stereo not drawn)
→ 15	4	-14	-11	4	1.1
C#CC(CC)(CC)NC(=O)/C=C/C(=O)O
→ 0	-7	-18	-5	11	0.3
O=C(O)CCCC(=O)Nc1ccccc1C(=O)O
→ 1	7	-4	-16	-8	2.5
Cc1ccc(S(=O)(=O)CCC(=O)OCC(=O)c2cc(C)n(C)c2C)cc1
→ -3	-5	-15	-10	47	4.5
Cn1c(N)c(S(=O)(=O)NCc2ccc(F)cc2)c(=O)n(C)c1=O
→ 6	6	9	9	6	0.4
Cc1cc(C)c(C(=O)COc2cccnc2[N+](=O)[O-])cc1C
→ -5	1	1	-6	8	1.2
CC(C)NC(=O)c1cc(C2CCCCN2C(=O)c2ccc(Cl)cc2)on1 (stereo not drawn)
→ 1	-22	-8	.	.	-0.6
CN(Cc1ccccc1)c1ccc(S(=O)(=O)N2CCOCC2)cn1
→ 2	-1	7	4	13	0.5
COc1ccc(-c2[nH]ncc2CN2CCC(C(=O)c3ccc(F)cc3)CC2)cc1
→ -10	-14	-26	-13	-12	-0.5

(cont.)
Screens in order – Six1-Eya2 blk	CtBP-E1A blk	D2 potentiator	TRPV1 potentiator	TRPML1 inh	TRPML1 ag
N#Cc1cccc(NC(=O)c2ccc(S(=O)(=O)N3CCOCC3)cc2)c1
→ -4	.	-23	-4	4	-0.8
COc1ccc(-c2noc(CNC(=O)c3ccc4c(c3)OCO4)n2)cc1
→ 31	0	-3	-7	-11	0.6
COc1ccc(C(C)=O)c2c1OCCO2
→ 3	-7	3	0	27	-0.3
O=C(COc1ccc(Br)cc1)Nc1ccc(NC(=O)c2ccccc2)cc1
→ 28	3	-19	-3	-2	0.6
Cc1csc(=O)n1CC(=O)OCC(=O)Nc1cc(Cl)ccc1[N+](=O)[O-]
→ -2	-4	?	-14	-5	0.6
CCCCc1c(Cc2cccc(F)c2)ncn1CCc1ccccc1OC
→ -16	-8	.	.	.	0.5
Cc1nnc(NC(=O)CSc2ccc3nnc(-c4ccccn4)n3n2)s1
→ -3	.	-4	16	9	0.2
CCN(CC)C(=O)CSc1nc(N)c(-c2ccccc2)c(=O)[nH]1
→ 4	6	-2	1	-6	-0.5

From PubChem BioAssay
